CBX7 inh – blocks human CBX7 binding to H3K27me3 peptide; O95931; AlphaScreen His6-CBX7 / biotin-H3K27me3 peptide binding; active compounds read low; normalised signal (fraction of DMSO) (test concentration not listed); 1.1% of 66,000 active; in the data active = normalised signal below about 0.5;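 note: 100 nL library stock added to about 20 µL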
Target sequence (O95931 whole entry, looked up): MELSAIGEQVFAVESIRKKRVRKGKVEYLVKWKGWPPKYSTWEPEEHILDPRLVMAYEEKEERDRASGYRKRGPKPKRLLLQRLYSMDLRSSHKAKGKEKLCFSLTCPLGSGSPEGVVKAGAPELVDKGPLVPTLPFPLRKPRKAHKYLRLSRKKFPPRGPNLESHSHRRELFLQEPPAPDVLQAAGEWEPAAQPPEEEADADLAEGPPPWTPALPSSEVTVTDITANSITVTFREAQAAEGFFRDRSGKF
CBX7 inh z-score – recorded beside CBX7 inh, whose call it bears; z-score; measured here: z-score of CBX7 signal; some inactives read as strong as hits; reference of the scale not given here;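 same signal on another scale; lower means less binding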
An asterisk follows results filed as active. The list is partial; count on the stated rates, not on these rows.

SMILES	CBX7 inh	CBX7 inh z-score
CCOC(=O)c1ccc(NC(=O)CCc2c(C)nc3cc(-c4ccc(Cl)cc4)nn3c2C)cc1	1.3	6.7
O=C(Nc1nc2ccc(Cl)cc2s1)c1ccc(S(=O)(=O)N2CCOCC2)cc1	0.98	-0.39
COc1cc(CN2CCN(Cc3ccccc3Br)CC2)cc(OC)c1OC	1	1.2
Cc1ccc(S(=O)(=O)N2CCC(C(=O)N3CCC(C(=O)NCc4cccnc4)CC3)CC2)cc1	1	0.27
CC1CCCN(c2nc(Cc3ccccc3)nc3sc4c(c23)CCCC4)C1 (stereo not given)	0.93	-0.065
Cc1ccc(-c2nc3ccccc3s2)cc1NC(=O)c1cccnc1Cl	0.96	-0.65
COc1ccc(-c2noc(CCC(=O)N3CCN(c4ccccc4OC)CC3)n2)cc1	0.94	-0.76
COC(=O)c1cnn2c(C)c(Cc3ccccc3Br)c(C)nc12	1.1	1.3
COc1ccc(NC(=O)C(NS(=O)(=O)c2ccc3nc(C)sc3c2)C(C)C)cc1Cl (stereo not given)	0.93	-1.1
CCC(=O)Nc1nonc1-c1nc2ccccc2n1Cc1ccc(F)cc1Cl	0.96	-0.8
Cc1cc(Cl)ccc1OCc1nc(-c2cccnc2)no1	1.1	0.11
Cc1cccc(-n2ccnc2SCC(=O)Nc2ccccc2C(F)(F)F)c1	0.86	-0.14
COc1ccc(-c2cn3c(C)c(C(=O)Nc4cccc(NC(C)=O)c4)sc3n2)cc1	0.97	-0.56
CC(=O)N1CCc2cc(S(=O)(=O)NCCC(=O)Nc3ccc(Br)cc3C)ccc21	1.1	2.7
Cc1ccc(Cc2c(C)nc3nc(SCC(=O)Nc4ccc(C)c(C)c4)nn3c2C)cc1	1.1	0.73
O=C(CN1C(=O)COc2ccc(S(=O)(=O)N3CCOCC3)cc21)NC1CCCC1	0.92	-1.9
O=C(c1cc(-c2cccnc2)nc2ccccc12)N1CCCC1	1.1	1.6
Cc1nc2ccccn2c1-c1csc(Nc2cccc(O)c2)n1	0.63	-0.44
COc1cccc(-c2nc(-c3ccncc3)no2)c1	1.1	1.7
Cc1ccc(C(=O)Nc2ccc(-c3nnc4n3CCCCC4)cc2)cc1	0.97	-0.27
OCCCNc1nnc(-c2ccccc2)c2ccccc12	1.4	0.8
CCCC(=O)NCc1nc2ccccc2n1Cc1ccccc1F	1.1	0.6
O=C(O)c1ccc(N2C(=O)CC(N3CCN(Cc4ccccc4)CC3)C2=O)cc1 (stereo not given)	0.87	-2
COC(=O)c1ccccc1NC(=O)C1CC(c2cccc(OC)c2OC)=NO1 (stereo not given)	0.97	-0.91
Brc1ccc(-c2ncnn2-c2ccc(Br)nc2)cc1	1.1	0.89
CC(=O)N1CCc2cc(S(=O)(=O)N3CCC(C)CC3)ccc21	1	0.14
CS(=O)(=O)CCC(C(=O)Nc1ccccc1)N1C(=O)c2ccccc2C1=O (stereo not given)	1.1	1.7
COc1ccc(NC(=O)CN(C)S(=O)(=O)c2cnc[nH]2)cc1Cl	1.2	1.8
Cc1cccc(Cc2c(C)nc3c(C(=O)NC4CC4)cnn3c2C)c1	0.94	-1.5
COc1ccc(CN2CC(C(=O)NCCCN3CCC(C)CC3)CC2=O)cc1 (stereo not given)	1	1
Fc1ccc(Nc2nc3nonc3nc2Nc2ccc(F)cc2F)c(F)c1	1.2	2.4
CCCN(c1nc(C)c(Cl)c(OC)n1)S(=O)(=O)c1ccc(C)cc1	1.2	4.1
COc1ccc(OC)c(NS(=O)(=O)c2ccc3c(c2)CCC(=O)N3)c1	0.97	-0.65
Cc1cc(C)cc(NC(=O)CSc2nnc(Cc3cc(=O)[nH]c(=O)[nH]3)n2-c2cc(C)ccc2C)c1	1	0.09
CCC(=C(c1ccc(OC)cc1)c1ccc(OC)cc1)c1cn(CC(O)CN2CCN(C)CC2)c2ccccc12 (stereo not given)	0.35*	-4.4*
Clc1ccc(CC(Cc2nc3ccccc3[nH]2)c2nc3ccccc3[nH]2)cc1 (stereo not given)	1.1	0.9
Cc1cc(C)c2oc(-c3cccc(NC(=O)c4ccccc4F)c3)nc2c1	0.99	-0.2
CC1CCN(S(=O)(=O)c2ccc3c(c2)N(CC(=O)NCCCOC(C)C)C(=O)CO3)CC1	1.1	2.1
Cc1cccc(OCCn2c(NC(=O)c3ccc(Cl)cc3)nc3ccccc32)c1	0.92	-0.88
COc1ccc(CN2C(=O)N(c3ccc(OC)cc3)C(=O)C2CC(=O)Nc2ccc(Cl)cc2)cc1 (stereo not given)	1	-0.032
Cc1ccc(CNC(=O)C2CCN(c3nn4c(=O)cc(C)nc4s3)CC2)cc1	1	1.3
O=C1CC(C(=O)NCC2CCCO2)c2ccccc2N1 (stereo not given)	1.5	0.95
COc1ccc2nc(N3CCC(C(=O)NC(C)C)CC3)sc2c1	1.1	0.85
Cc1c(Cl)cccc1N1CC(C(=O)Nc2nccs2)CC1=O (stereo not given)	0.65	-5.5
COc1ccc(-n2nc(C(=O)NCc3ccccc3OC)c3ccccc3c2=O)cc1	1	-0.095
O=C(CN1CCOCC1)Nc1c2c(nc3c1CCC3)CCCC2	0.68	-4.3
CC(NC(=O)C1CCN(c2nc3ccccc3[nH]2)CC1)c1ccc2c(c1)OCCO2 (stereo not given)	0.96	-0.51
Cc1ccc(NC(=O)c2ccc(CNc3c(N4CCOCC4)c(=O)c3=O)cc2)cc1F	1.2	1.4
CCCNC(=O)c1cc(CC(C)C)on1	1	0.15
CCOC(=O)c1ccc(NC2c3ncccc3C(=O)N2Cc2ccc(F)cc2)cc1 (stereo not given)	0.45*	-7.1*
CCN(CCCNC(=O)C1CCN(S(=O)(=O)c2cnc[nH]2)CC1)c1ccccc1	0.92	-1.4
CCNS(=O)(=O)c1cc(-c2nnc(OC)c3ccccc23)ccc1C	0.9	-1.2
Cc1ccc(S(=O)(=O)N(C)Cc2nc(-c3ccncc3)no2)cc1	1	0.1
CC1CCCCN1CCNc1ccc2nnc(-c3ccc(F)cc3)n2n1 (stereo not given)	0.99	-0.29
CCc1ccc(C2=NN(CCC(=O)NCc3ccccc3OC)C(=O)CC2)cc1	0.92	-1.4
CCOC(=O)c1ccc2c(c1)NC(=O)C(N1CCN(c3ccc(OC)cc3)CC1)S2 (stereo not given)	1.5	1.1
Cc1ccc(Cn2c(=O)cc(C(=O)NCCc3ccccc3)c3ccccc32)cc1	0.85	-1.6
c1ccc(-c2onc3ccc(-n4cccc4C4OCCO4)cc23)cc1	0.94	-2.3
Cc1cc(OCCCc2c(C)n[nH]c2C)ccc1Cl	1.1	2.6
CCCn1c(C2CC(=O)N(c3c(C)cc(C)cc3C)C2)nc2ccccc21 (stereo not given)	1	0.1

Next part.
SMILES	CBX7 inh	CBX7 inh z-score
CC(C)N1C[C@H](C)C(O)(c2ccccc2)CC1C (stereo not given in full)	1	0.13
O=C(Nc1ccc(N2CCOCC2)c(Cl)c1)c1sc2ccccc2c1Cl	1	-0.00046
CCOC(=O)Nc1ccc2c(c1)N(C(=O)CN(C)C)c1ccccc1CC2	1.1	2.1
CCc1c(C)nc2c(-c3ccccc3)c[nH]n2c1=O	1	0.45
CN(CCC#N)C(=O)c1ccc2c(c1)N(Cc1ccc(Cl)cc1)C(=O)c1ccccc1S2=O (stereo not given)	0.98	-0.32
CCN1C(=O)c2ccccc2Sc2ccc(C(=O)NC(C)C)cc21	0.98	-0.65
COc1cccc(OC)c1C(=O)Nc1cc(C)on1	0.97	-0.7
c1ccc(-c2nnc3ccc(N4CCC5(CC4)OCCO5)nn23)cc1	1	0.12
CCc1nn(-c2cc(Cl)ccc2OC)c2c1C(=O)CCC2	1.1	1.3
CCOc1ccccc1NC(=O)c1c(NCc2cccs2)sc2c1CCC2	1	0.48
Cc1cc(N2CCOCC2)nc2ccc(NC(=O)CCC(=O)Nc3ccc(F)cc3)cc12	1	1.2
COc1ccc(-c2nn(C)c(=O)c3ccccc23)cc1NS(=O)(=O)c1ccc(Cl)cc1	1	0.31
CCc1ccc(NC(=O)c2cc(-c3ccc(Br)cc3)on2)cc1	0.98	-0.021
Cc1ccc(Nc2cc(C(=O)O)c3ccccc3n2)cc1	1.1	1.2
CCN1CCN(C(=O)C2c3ccccc3C(=O)N3CCc4ccccc4C23)CC1 (stereo not given)	1	0.36
CCN(CC)CCCNC(=O)c1ccc2c(c1)N(Cc1c(F)cccc1Cl)C(=O)CS2	1.1	2.2
Cc1cc(N2CCC(C)CC2)nc2ccc(NC(=O)c3c(F)cccc3F)cc12	0.81	-3.1
CCN(c1cccc(C)c1)S(=O)(=O)c1ccc2[nH]cc(C(=O)NCCN3CCOCC3)c(=O)c2c1	1	1.2
O=C(Nc1nccs1)c1cn(-c2ccccc2)nc1-c1ccc(Br)cc1	1.1	2
Cc1ccc(-c2nc(CS(=O)(=O)CC(=O)Nc3ccccc3C)c(C)o2)cc1	1.1	0.11
CCOC(=O)c1ccccc1NC1c2ccccc2C(=O)N1c1ccc(C)cn1 (stereo not given)	1	0.85
CCOc1ccc(N(C)S(=O)(=O)c2ccc3[nH]cc(C(=O)NCCCOC)c(=O)c3c2)cc1	1	-0.016
Cc1cc(C)c(C#N)c(Oc2cccc(NC(=O)c3ccccc3)c2)n1	1	1
Cc1cccc(-n2c(Cc3cc(=O)[nH]c(=O)[nH]3)nnc2SCC(=O)N2CCC(C)CC2)c1	1.2	0.82
Cc1noc(C)c1S(=O)(=O)N1CCCC(C(=O)Nc2ccc(C(F)(F)F)cc2)C1 (stereo not given)	1.2	3
CCC(C)(C)NC(=O)CN(C)S(=O)(=O)c1cccc2cccnc12	0.98	-0.42
CC1(C)CC(=O)C2=C(C1)N(c1ccccc1F)C(=O)CC2c1ccsc1 (stereo not given)	1.4	4
Cc1oc(-c2ccccc2F)nc1C(=O)NCc1ccccc1	1	0.18
CC(=O)N1CCc2cc(S(=O)(=O)NCCC(=O)NCc3ccc(C)cc3)ccc21	0.93	-1.4
COc1ccc2c(c1)c(CC(=O)NCc1ccc(C(C)C)cc1)c(C)n2C(=O)c1ccc(Cl)cc1	1.1	1.5
Cc1cccc(C)c1NC(=O)CSc1nnc(-c2cccnc2)n1C	0.95	-1.2
Cc1cc(NC(=O)CCN2CCN(CCO)CC2)no1	0.94	-1
Cc1ccc(NC(=O)CCc2c(C)nc3c(-c4ccccc4)c(C)nn3c2C)cc1	1	1
CCc1ccccc1NC(=O)c1cccc2c1C(=O)N(CCOC)C2	1	0.04
COc1cccc(-c2nn(C)c3sc(C(=O)NCc4ccc5c(c4)OCO5)cc23)c1	0.99	-0.4
Cc1ccc(C)c(NC(=O)CCc2c(C)nc3c(-c4ccccc4)c(C)nn3c2C)c1	1.2	2.2
Cc1ccc(Nc2c3c(nc4ccc(Cl)cc24)CCCC3)c(Cl)c1	0.84	-0.22
COc1ccccc1CNc1ccc2nnc(-c3ccccc3)n2n1	0.96	-0.82
COC(=O)CN1C(=O)CSc2ccc(S(=O)(=O)N3CCC(C)CC3)cc21	1	0.83
COc1ccc(CCNC(=O)Cn2c(=O)n(-c3cccc(C(F)(F)F)c3)c(=O)c3sccc32)cc1OC	0.8	-3.3
COc1ccc(NC(=O)Cn2c(SCc3cc(C)ccc3C)nc3ccncc32)cc1OC	0.92	-3.9
Cc1c(C(=O)O)oc2ccc(S(=O)(=O)N(CCc3ccccc3)Cc3ccccc3)cc12	1	0.67
Cc1cc(C)cc(NC(=O)CCc2c(C)nc3cc(-c4cccc(F)c4)nn3c2C)c1	1	0.45
O=C(NCc1cccnc1)C1CCC(=O)N1Cc1ccc(F)cc1 (stereo not given)	1	1.2
CCC(Cc1ccccc1)NC(=O)c1csc2c1CCCCC2 (stereo not given)	1.1	2
Cc1ccc2c(c1)N(C(C)C(=O)N1CCCC1)C(=O)CO2 (stereo not given)	1	0.42
O=C(Nc1cccc(-c2nc3ccccc3o2)c1)c1ccccc1F	1	0.056
COc1ccc(CCNC2CC(=O)N(c3ccc(NC(C)=O)cc3)C2=O)cc1 (stereo not given)	0.99	-0.33
